gsp antag: gsp mutant antagonism; gsp-mutant cells, cAMP HTRF, 30 min; control for the full effect not named in the record; Potency, µM (doses to about 76.9 µM), for the others: top-dose activity change, negative = inhibition, usual class: inhibitors; 0.4% of 340,000 active; AID 624288; active = falling curve of any shape with a large fitted effect; inconclusive = falling curve, mostly with a smaller effect; inactive = flat or rising curve; cell line not stated here;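 note: intracellular cAMP measured with PDE inhibitor Ro 20-1724 present during compound exposure; potency is the fitted concentration of half-maximal effect; % is set by controls: 0 for no effect and ±100 for the full control effect; nearly all actives have a fitted effect of over 65% in size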
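G418-selected cells were plated in DMEM/10% FBS for 16-24 h at 37C, then treated with compounds plus the PDE inhibitor […] (300 uM solution added) for 30 min at 37C. Intracellular cAMP was measured by HTRF after 30 min lysis at room temperature.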
CtBP-E1A blk: blocks the CtBP interaction with E1A; AlphaScreen GST-E1A/His-CtBP binding, 1536-well; hits give low values; control for the full effect not named in the record; activity change, % (test concentration not listed); 0.49% of 340,000 active; AID 651724; in the data active means activity change below about -65%; inconclusive means about -30% to -65%; inactive means above about -30%; note: % is set by controls: 0 for no effect and ±100 for the full control effect; compound concentration not given in the record
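Homogeneous bead-based format: GST-tagged E1A captured on glutathione donor beads, His-tagged CtBP on nickel acceptor beads; compounds precede bead addition by 2 h at 37 °C.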
Six1-Eya2 blk: Six1/Eya2 interaction inhibition; Q15475+O00167; AlphaScreen GST-Six1/His-Eya2 binding, biochemical; hits give low values; control for the full effect not named in the record; activity change, % (no concentration beside the values); 0.56% of 360,000 active; AID 651725; in the data active = activity change below about -65%; inconclusive = about -30% to -65%; inactive = above about -30%; note: % is set by controls: 0 for no effect and ±100 for the full control effect; compound concentration not given in the record
Target sequence (O00167 whole entry, looked up): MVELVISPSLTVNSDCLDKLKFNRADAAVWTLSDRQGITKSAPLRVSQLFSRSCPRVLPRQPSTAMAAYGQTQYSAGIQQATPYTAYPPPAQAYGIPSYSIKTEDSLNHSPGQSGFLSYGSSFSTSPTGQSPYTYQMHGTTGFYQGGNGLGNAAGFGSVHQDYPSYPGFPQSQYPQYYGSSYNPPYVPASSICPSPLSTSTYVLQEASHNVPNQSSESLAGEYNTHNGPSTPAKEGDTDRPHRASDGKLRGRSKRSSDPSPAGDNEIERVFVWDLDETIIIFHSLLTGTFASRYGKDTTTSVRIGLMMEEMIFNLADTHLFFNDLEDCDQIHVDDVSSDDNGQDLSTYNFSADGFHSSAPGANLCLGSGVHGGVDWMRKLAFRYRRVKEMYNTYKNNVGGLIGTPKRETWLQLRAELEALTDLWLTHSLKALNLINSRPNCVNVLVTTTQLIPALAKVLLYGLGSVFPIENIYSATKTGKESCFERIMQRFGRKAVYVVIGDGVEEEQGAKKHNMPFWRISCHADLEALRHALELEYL
Target sequence (Q15475 whole entry, looked up): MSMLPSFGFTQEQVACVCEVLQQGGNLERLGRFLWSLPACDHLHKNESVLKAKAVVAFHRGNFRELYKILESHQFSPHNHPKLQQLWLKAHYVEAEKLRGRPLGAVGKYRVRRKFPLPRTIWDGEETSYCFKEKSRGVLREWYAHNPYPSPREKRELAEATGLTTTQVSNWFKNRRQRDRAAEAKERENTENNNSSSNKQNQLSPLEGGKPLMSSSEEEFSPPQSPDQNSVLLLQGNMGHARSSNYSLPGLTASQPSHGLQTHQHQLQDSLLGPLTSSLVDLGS
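Six1/Eya2 binding was read as AlphaScreen signal after compounds were pinned into GST-Six1 plus His-tagged Eya2 (5X stock 250/500 nM) in pH 8.0 Tris/NaCl/TCEP buffer, beads added, then incubated 1 h, 37 C, dark.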
D2 ag: human D2 receptor agonism in beta-arrestin assay. activation, % (test concentration not listed). P14416. 0.084% of 360,000 active. DiscoveRx PathHunter D2 beta-arrestin, luminescence, 90 min; 100% = 57 uM dopamine signal; in the data active = activation above about 40%; inconclusive = about 15% to 40%; inactive = below about 15%; note: compound concentration not given in the record; the text of the record calls up to 30% inactive
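DiscoveRx PathHunter D2 beta-arrestin cells (2,100/well) attached overnight, then compound-stimulated 90 min at 37 C in HBSS/10 mM HEPES/0.1% Tween-20 buffer; beta-galactosidase complementation read by luminescence after 1 h at ambient temperature. Dopamine 57 uM final (EC100) as control.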
D2 potentiator: positive allosteric modulators of human D2 dopamine receptor | P14416 | DiscoveRx D2 beta-arrestin cells, luminescence, 90 min; 100% = 57 uM dopamine signal | potentiation, % (test concentration not listed) | 0.23% of 360,000 active | AID 624464; active = potentiation of 50% or more; inconclusive = 30% to 50%; inactive = 30% or less;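 note: compound concentration not given in the record; tested on top of an EC20 dose of dopamine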
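D2 cells co-treated with compound plus 50 nM dopamine (EC20) for 90 min at 37 deg C to detect potentiation. Beta-arrestin recruitment was read as enzyme-fragment luminescence after 1 h at ambient temperature. Full response was set by 57 uM dopamine.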
gsp ag: gsp mutant agonism | gsp mutant cells, cAMP HTRF, 30 min; control for the full effect not named in the record | Potency, µM (highest dose often 76.9 µM), inactives show at the highest dose activation (cAMP increase), hits mostly activators | 0.13% of 340,000 active; active = well fitted activation curve with a large enough effect; inconclusive = small, poorly fitted or top-dose-only effect, or another doubt; inactive = no such curve, though single readings can be large or run the other way; cell line not stated here;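 note: phosphodiesterase inhibitor Ro 20-1724 added with compounds to block cAMP breakdown; potency is the fitted concentration of half-maximal effect; nearly all actives have a fitted effect of over 60% in size; about a fifth of the inactives were tested at one dose only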
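Cells stably selected in G418 were plated at 2000/well, grown 16-24 hr, then given compounds in DMSO with the PDE inhibitor […] (300 uM solution added) for 30 min at 37C; cAMP was read by HTRF.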
Numbers without * were called inactive; ? = inconclusive; nt = no result given; & = joins results of further samples; [ ] = remark or other dose. These rows are one share of the data; count on the stated rates, not on these rows.

SMILES	gsp antag	CtBP-E1A blk	Six1-Eya2 blk	D2 ag	D2 potentiator	gsp ag
COc1cc(CCN)ccc1O	-4%	0	3	8.4	-13	nt
CCC(=NCc1ccco1)c1c(O)n(-c2ccc(C)cc2)c(=O)[nH]c1=O	5%	-1	-2	-2.8	-1	-81%[inhibitor]
CC1(C)CC2(CCO1)NCCN1C(=O)CSC12 (centres undefined)	2%	-2	11	-0.7	12	-4%
O=C(c1ccc(Cl)cc1)C1CCCN(Cc2cccc3cccnc23)C1 (centres undefined)	6%	-6	-7	-4.0	-6	2%
Cc1ccc([C@H]2C[C@@H](O)[C@H](n3cc(COC(=O)c4ccccc4)nn3)CN2CC2CCCCC2)cc1	nt	0	5	-2.8	1	-24%
Cc1cc(/C=C2\C(=O)NC(=O)N(c3ccc(Br)cc3)C2=O)c(C)n1-c1cc(C(=O)O)cc(C(=O)O)c1	0%	nt	-84*	4.5	-8	-44%
CCCCn1c(=O)c(C(=O)Nc2ccc(C)cn2)c(O)c2ccccc21	7%	nt	1	-0.9	-1	-30%
COC(=O)C1=C(c2ccc(OC(F)(F)F)cc2)C[C@@H]2CC[C@H]1N2C(=O)NC1CC1	7%	7	6	-8.2	-5	8%
CCCCn1c(O)c(C(CC)=NCc2ccco2)c(=O)[nH]c1=O	-12%	1	-3	-0.8	-10	12%
COC(=O)C1=C(c2ccc(-c3ccccc3)c(F)c2)C[C@@H]2CC[C@H]1N2C(=O)NCC1CC1	?	0	-1	1.6	-85	nt
CCCCn1c(O)c(C(C)=NCCCn2ccnc2)c(=O)[nH]c1=O	-10%	3	0	-4.7	-9	-38%[inhibitor]
CC(=O)NCC1=C(c2ccc3ccccc3c2)C[C@@H]2CC[C@H]1N2Cc1ccco1	nt	-7	10	-9.1	-8	-3%
COc1ccccc1CN1CC(C(=O)NCCN(C)CCc2ccccc2)CCC1=O (centres undefined)	-15%	-13	-5	0.5	-24	-33%[inhibitor]
COc1ccc(CN2C(=O)NC(=O)/C(=C\c3cc(OC)c(OC)c(OC)c3)C2=O)cc1	2%	-12	-8	-1.5	-1	-11%[15.4 µM]
COC(=O)C1=C(c2cccc(OCc3ccccc3)c2)C[C@@H]2CC[C@H]1N2C(=O)NCc1ccccc1	-13%	-1	-2	-1.8	-8	5%
CC(=NCC1CCCO1)c1c(O)n(C)c(=O)n(C)c1=O (centres undefined)	1%	4	-1	-2.7	-6	10%
CCC(c1nnnn1C(C)(C)C)N1CCC2(CC1)C(=O)NCN2c1ccccc1 (centres undefined)	nt	-1	-5	-4.3	-10	nt
c1ccc2nc(N3CCNCC3)ccc2c1	3%&8%	6&4	-1&4	-1.4&2.3	-19&-15	nt
COc1ccc(OC)c(NC2=NCCS2)c1	3%	5	-1	0.6	-3	-1%
COc1ccc(C(=O)C2CCCN(Cc3ccc(C)s3)C2)c(OC)c1 (centres undefined)	-6%	3	-15	-4.6	-21	-14%[15.4 µM]
c1ccc(C(c2ccccc2)c2cccnc2)cc1	-24%	4	7	1.5	-9	3%
Cn1c[n+](C)cc1C(O)c1ccccc1 (centres undefined)	8%&5%	2&9	0&4	-0.4&-0.3	-37&-3	8%&0%
CC[n+]1c(-c2ccccc2)c2cc(N)ccc2c2ccc(N)cc21	?	-17	?	11	25	25%
CCN(CC)C(=O)c1ccc(NC(=O)COc2ccccc2F)cc1	nt	10	4	3.4	-5	-2%[15.4 µM]
C[C@H](NC(=O)N1C[C@H]2C[C@@H](C1)c1cccc(=O)n1C2)C(=O)Nc1ccc(F)c(F)c1	8%	0	36	-3.7	-14	nt
C=CCn1c(O)c(C=NCCCn2ccnc2)c(=O)[nH]c1=O	-4%	4	-2	-1.1	-13	18%
Cc1cccc(C)c1-n1nnnc1C(c1ccnc2ccccc12)N1CCC2(CC1)C(=O)NCN2c1ccccc1 (centres undefined)	nt	-4	-17	3.1	0	nt
Cc1ccccc1-n1c(O)c(/C=N/c2nccs2)c(=O)[nH]c1=O	7%&11%	-1&-26	10&-16	-0.2&-3.8	-2&-2	-33%[inhibitor]
C=CCn1c(O)c(C(C)=NCCC(c2ccccc2)c2ccccc2)c(=O)[nH]c1=O	6%	3	-1	0.3	4	2%
CC1CCCC(NC(=O)COC(=O)c2cn(C)c3ccccc23)C1C (centres undefined)	4%	4	0	-0.5	-1	16%
O=P(Oc1ccc(Cl)cc1)(N1CC1)N1CC1	5%	1	-4	-0.5	-1	-20%
CCOc1cc(N2CCOCC2)c(OCC)cc1NC(=O)C1=NN(c2cccc(C)c2)C(=O)CC1	?	nt	-9	1.2	3	-11%
COc1cccc(Oc2coc3cc(OC(=O)N(C)C)ccc3c2=O)c1	-8%	-20	-11	-0.3	-14	-71%[inhibitor]
COc1ccc(-c2nn(CCC#N)cc2C(=O)NCc2ccccc2)cc1OC	-2%	nt	0	0.3	10	-6%
COc1cc(C(=O)N/N=C/C23CC[C@@H](O)CC2(O)CC[C@@H]2[C@@H]3CCC3(C)C(C4=CC(=O)OC4)CCC23O)ccc1O (some centres undefined)	12%	3	-7	0.4	-3	40%
CN(C)CC#CCC(O)(c1ccccc1)C1CCCC1 (centres undefined)	10%	4	10	-2.5	-12	20%
O=C(COC(=O)Cc1ccccc1)NCCNC(=O)COC(=O)Cc1ccccc1	6%	3	2	-3.2	-2	4%[15.4 µM]
CN=C(SCc1ccccc1)c1c(O)n(C)c(=O)n(C)c1=O	4%	-12	1	-1.4	-9	11%
COc1ccc(-n2c(O)c(C(C)=NCCCn3ccnc3)c(=O)[nH]c2=O)cc1	10%	-24	-12	0.6	-8	14%
O=C(c1ccc(CS(=O)(=O)c2ccccc2)o1)N1CCC2(CC1)OCCO2	-12%	5	0	-1.3	-5	9%
CCCc1nnc(NC(=O)CCC(=O)N2CCC3(CC2)OCCO3)s1	9%	0	-4	-0.8	-9	-4%[15.4 µM]
O=C1NC(=S)NC(=O)C1c1ccccc1	1%	2	11	0.9	-2	19%
Cc1nc2ccccn2c1P(=S)(N1CCCCC1)N1CCCCC1	-8%	-4	5	-5.8	-10	-11%[15.4 µM]
NCCCCCC(=O)OC1N=C(c2ccccc2Cl)c2cc(Br)ccc2NC1=O (centres undefined)	9%	-19	1	1.6	-7	-22%
CNc1cc(Cl)c2nonc2c1[N+](=O)[O-]	-34%	-18	-28	-9.7	-16	0%[15.4 µM]
COc1ccc(C(O)P(=O)(Oc2ccccc2)Oc2ccccc2)cc1 (centres undefined)	11%	8	-2	0.4	-11	0%
Oc1ccc2c3c1OC1c4[nH]c5ccccc5c4C[C@@]4(O)C(C2)N(CC2CC2)CC[C@]314 (some centres undefined)	2%	-3	-4	3.6	-11	nt
c1ccc(CCN2CCCCC2)nc1	6%	4	9	-1.5	-4	18%
C[C@H]1CCC/C=C/[C@@H]2C[C@H](O)C[C@H]2[C@H](O)/C=C/C(=O)O1	-13%&-5%	4&-21	0&6	-2.6&-1.4	-1&-9	nt
CN1C(=O)NC(=O)/C(=C/c2ccc([N+](=O)[O-])s2)C1=O	-7%	?	?	5.7	-9	?

Molecules above with fluorine (4):
SMILES	gsp antag	CtBP-E1A blk	Six1-Eya2 blk	D2 ag	D2 potentiator	gsp ag
COC(=O)C1=C(c2ccc(OC(F)(F)F)cc2)C[C@@H]2CC[C@H]1N2C(=O)NC1CC1	7%	7	6	-8.2	-5	8%
COC(=O)C1=C(c2ccc(-c3ccccc3)c(F)c2)C[C@@H]2CC[C@H]1N2C(=O)NCC1CC1	?	0	-1	1.6	-85	nt
CCN(CC)C(=O)c1ccc(NC(=O)COc2ccccc2F)cc1	nt	10	4	3.4	-5	-2%[15.4 µM]
C[C@H](NC(=O)N1C[C@H]2C[C@@H](C1)c1cccc(=O)n1C2)C(=O)Nc1ccc(F)c(F)c1	8%	0	36	-3.7	-14	nt

Part of the list above in another layout:
c1ccc(CCN2CCCCC2)nc1
  gsp antag: 6%
  CtBP-E1A blk: 4
  Six1-Eya2 blk: 9
  D2 ag: -1.5
  D2 potentiator: -4
  gsp ag: 18%

CCCc1nnc(NC(=O)CCC(=O)N2CCC3(CC2)OCCO3)s1
  gsp antag: 9%
  CtBP-E1A blk: 0
  Six1-Eya2 blk: -4
  D2 ag: -0.8
  D2 potentiator: -9
  gsp ag: -4%[15.4 µM]

(list continues)
SMILES	gsp antag	CtBP-E1A blk	Six1-Eya2 blk	D2 ag	D2 potentiator	gsp ag
CCC12CN3CCN(CC(C3)/C1=N\O)C2	5%	12	9	-0.5	8	6%
COc1ccc2nc(NC3=NCCN3)sc2c1	-3%	13	8	-0.8	-5	17%[15.4 µM]
COc1ccc(C(c2nnnn2-c2c(C)cccc2C)N2CCC3(CC2)C(=O)NCN3c2ccccc2)cc1 (centres undefined)	nt	-16	-21	2.8	-6	nt
Cn1c(O)c(N=Nc2cccc(S(=O)(=O)N3CCOCC3)c2)c(=O)n(C)c1=O	30%	10	0	-2.5	-1	?
CC(C)(C)C(=O)N1Cc2cc(-c3ccccc3)ccc2-n2nncc2C1	nt	-3	-8	-3.2	-1	nt
S=P(NCCNP(=S)(N1CC1)N1CC1)(N1CC1)N1CC1	9%	-28	-30	-5.6	-12	?
COC(=O)C1=C(c2ccc(-c3ccccc3)c(F)c2)C[C@@H]2CC[C@H]1N2C(=O)N1CCCC1	?	-20	-15	0.1	-17	nt
C=CCN1C(=O)/C(=C/c2ccc3c(c2)CCCN3CCC)C(=O)NC1=S	-4%	-1	-7	11	-1	-2%[15.4 µM]
O=[N+]([O-])c1ccccc1CCl	-7%	8	-3	3.3	0	nt
CC12Cc3cn[nH]c3C=C1CCC1C2CCC2(C)C1CCC2(C)O (centres undefined)	?	5	-1	2.7	-1	4%

Full records, quoted from the list. Order of screens: gsp antag, CtBP-E1A blk, Six1-Eya2 blk, D2 ag, D2 potentiator, gsp ag
CNc1cc(Cl)c2nonc2c1[N+](=O)[O-] as listed: -34%, -18, -28, -9.7, -16, 0%[15.4 µM]
CC1(C)CC2(CCO1)NCCN1C(=O)CSC12 (centres undefined) as listed: 2%, -2, 11, -0.7, 12, -4%

(more compounds)
SMILES	gsp antag	CtBP-E1A blk	Six1-Eya2 blk	D2 ag	D2 potentiator	gsp ag
C[C@@H]1CN([C@@H](C)CO)C(=O)CCCn2nncc2CO[C@H]1CN(C)C(=O)Oc1cccc2ccccc12	nt	-11	2	-9.1	0	?
O=[N+]([O-])c1ccc(C(c2ccc([N+](=O)[O-])cc2)c2ccc([N+](=O)[O-])cc2)cc1	?	-22	-23	9.9	7	1%
CC(=O)N1CCCc2cc(S(=O)(=O)N3CCCC(C(=O)Nc4cccc(F)c4)C3)ccc21 (centres undefined)	?	-3	3	0.4	-2	7%
CC(C)c1ccc(C2NCc3ccccc3-n3cccc32)cc1 (centres undefined)	0%	nt	-18	-5.6	-13	18%
